Source: PubChem (Broad Institute)
ID4 binder: binders of human ID4 protein | small molecule microarray, Flag-ID4 binding, fluorescence F/B | actives 1.2% (n = 31,000) | P47928 | AID 624137 | calls only;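 active means spot signal over background at p below 0.07 in all four prints; compounds were printed on slides so no solution concentration is given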;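 further: a binder raises fluorescence above local background on the spot; about 2 pmol printed per array spot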
Target sequence (P47928 whole entry, looked up): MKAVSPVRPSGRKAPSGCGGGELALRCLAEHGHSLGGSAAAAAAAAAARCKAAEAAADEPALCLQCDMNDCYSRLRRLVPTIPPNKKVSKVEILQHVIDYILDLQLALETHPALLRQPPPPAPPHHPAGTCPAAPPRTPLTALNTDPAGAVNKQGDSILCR
Calls only; i = inactive; + = active, no number.

SMILES	ID4 binder
CCCN(C)C[C@H]1Oc2cc(C#CC(C)C)ccc2S(=O)(=O)N([C@@H](C)CO)C[C@H]1C	i
C/C=C/c1cnc2c(c1)C(=O)N([C@H](C)CO)C[C@H](C)[C@H](CN(C)C(=O)Cc1ccccc1)O2	i
C[C@@H]1CN([C@@H](C)CO)S(=O)(=O)c2ccc(C#CCC3CCCC3)cc2O[C@H]1CN(C)Cc1cccc(C(=O)O)c1	i
CC(=O)c1c(C)n(-c2ccc(C)cc2)c2ccc(OC(=O)CN3C(=O)c4ccccc4C3=O)cc12	i
CS(=O)(=O)N(CC(=O)Nc1c(F)cccc1F)c1ccc(I)cc1	i
COc1ccc(-c2ccc([C@H]3[C@@H](CO)N(C(=O)C4CC4)[C@H]3C#N)cc2)cc1	i
C[C@@H]1CN([C@@H](C)CO)C(=O)c2cc(-c3ccncc3)cnc2O[C@H]1CN(C)C(=O)Nc1ccc2c(c1)OCO2	i
Cc1ccc(N(C(C)C(=O)Nc2ccccc2Cl)S(C)(=O)=O)cc1 (stereo not drawn)	i
O=C(Cn1cnc2scc(-c3ccccc3)c2c1=O)Nc1ccc(Oc2ccccc2)cc1	i
CCOc1ccc(NC(=O)CSc2nc3ccccc3o2)cc1	i
C[C@H]1CN([C@@H](C)CO)C(=O)c2cc(Br)cnc2O[C@@H]1CN(C)Cc1ccccn1	i
Cc1ccccc1-c1nc2cc(NC(=O)COc3ccc(Br)cc3)ccc2o1	i
Cc1nc(SCC(=O)c2ccccc2)c(C#N)c(-c2cccc(Cl)c2)c1C(=O)Nc1ccccc1	i
CCCC#Cc1cnc2c(c1)C(=O)N([C@@H](C)CO)C[C@H](C)[C@H](CN(C)C(=O)CN1CCOCC1)O2	i
C[C@@H]1CN([C@@H](C)CO)S(=O)(=O)c2ccc(C3=CCCC3)cc2O[C@H]1CN(C)C	i
O=C(NCC[C@H]1CC[C@H](NC(=O)C2CCCC2)[C@H](CO)O1)c1cc(Cl)cc(Cl)c1	i
COc1cc2c(cc1OC)-c1cc(=Nc3c(C)cc(C)cc3C)n(C)c(=O)n1CC2	i
O=C(CC1Sc2ncnn2C1=O)Nc1ccc(Cl)cc1 (stereo not drawn)	i
Cc1ccc(-n2c(C)nnc2SCC(=O)Nc2cc(Cl)ccc2C)cc1	i
N#C[C@H]1[C@@H](c2ccccc2)[C@@H](CO)N1S(=O)(=O)c1ccc(F)cc1	i
O=C(CSc1nc2ccccc2[nH]1)Nc1ccccc1N1CCOCC1	i
C[C@@H]1CN([C@H](C)CO)S(=O)(=O)c2ccc(C#Cc3ccccn3)cc2O[C@H]1CN(C)C(=O)C1CC1	i
CC(=O)Nc1ccc(NC(=O)CN(C)S(=O)(=O)c2ccccc2)cc1	i
CCC(=O)N[C@H]1CC[C@@H](CC(=O)NCc2cc(F)cc(F)c2)O[C@H]1CO	i
C[C@H](CO)N1C[C@H](C)[C@H](CN(C)CC2CC2)OCc2ccccc2-c2ccccc2C1=O	i
NNC(=O)C1C2CCCCC21 (stereo not drawn)	i
NS(=O)(=O)c1ccc(CCNC(=O)c2cc(-c3ccccn3)nc3ccc(Br)cc23)cc1	i
CC(C)NC(=O)N[C@@H]1CC[C@H](CC(=O)NCCCN(C)C)O[C@H]1CO	i
O=C(CSc1nnc(-c2ccccc2Br)o1)c1ccc2c(c1)OCCO2	i
Cc1cccc(CCN2CCC(C(=O)c3ccc(NS(C)(=O)=O)cc3)CC2)n1	i
N#Cc1c(C(F)(F)F)cc(-c2cccs2)nc1SCC(=O)Nc1ccc2ccccc2c1	i
C[C@H](CO)N1C[C@H](C)[C@@H](CN(C)C(=O)C2CCC2)Oc2ncc(C#Cc3ccccc3F)cc2C1=O	i
COc1ccc(S(=O)(=O)N(CC(=O)Nc2ccc3c(c2)OCCO3)C2CCCCC2)cc1Cl	i
O=C(c1ccccc1)N1CC(=O)N(OCc2ccccc2)C1c1cccs1 (stereo not drawn)	i
COc1ccc(S(=O)(=O)N(C)CC(=O)Nc2cc(Cl)cc(Cl)c2)cc1	i
CN(C)C(=O)C[C@H]1C[C@@H]2c3cc(NC(=O)C4CCC4)ccc3O[C@@H]2[C@@H](CO)O1	i

Some of these compounds in order of count of non-hydrogen atoms, highest first:
SMILES	ID4 binder
NS(=O)(=O)c1ccc(CCNC(=O)c2cc(-c3ccccn3)nc3ccc(Br)cc23)cc1	i
O=C(c1ccccc1)N1CC(=O)N(OCc2ccccc2)C1c1cccs1 (stereo not drawn)	i
CC(C)NC(=O)N[C@@H]1CC[C@H](CC(=O)NCCCN(C)C)O[C@H]1CO	i

(next part)
SMILES	ID4 binder
O=C(CSc1nnc(-c2cccc([N+](=O)[O-])c2)o1)c1ccc2c(c1)OCCO2	i
COc1cccc(NC(=O)N[C@H]2C=C[C@@H](CC(=O)N3CCOCC3)O[C@H]2CO)c1	i
CCCN(C)C[C@H]1Oc2cc(C#CC3CCCCC3)ccc2S(=O)(=O)N([C@@H](C)CO)C[C@H]1C	i
CCc1nn(-c2ccccc2)c2nc(-c3ccccc3O)c3cc(OC)c(OC)cc3c12	i
COCC#Cc1ccc2c(c1)O[C@@H](CN(C)C)[C@@H](C)CN([C@@H](C)CO)S2(=O)=O	i
Cc1ccccc1-c1cnc2c(c1)C(=O)N([C@@H](C)CO)C[C@@H](C)[C@@H](CN(C)C(=O)CN(C)C)O2	i
C[C@@H](NC(=O)C[C@@H]1C[C@@H]2c3cc(NS(C)(=O)=O)ccc3O[C@@H]2[C@@H](CO)O1)c1ccccc1	i
C[C@@H]1CN([C@@H](C)CO)C(=O)c2cc(C3=CCCCC3)cnc2O[C@H]1CN(C)Cc1ccccc1F	i
CC(C)C#Cc1cnc2c(c1)C(=O)N([C@@H](C)CO)C[C@H](C)[C@@H](CN(C)C(=O)c1cccnc1)O2	i
COc1ccc2c(c1)c(CC(=O)OCc1ccccn1)c(C)n2C(=O)c1ccc(Cl)cc1	i
CS(=O)(=O)N(CC(=O)Nc1cccc(C(F)(F)F)c1)c1ccc(F)c(Cl)c1	i
COc1cc(C(=O)NC2(C(F)(F)F)C(=O)N(CC3CCCO3)C3=C2C(=O)CC(C)(C)C3)cc(OC)c1OC (stereo not drawn)	i
C[C@@H]1CN([C@@H](C)CO)C(=O)c2cc(C#Cc3cccnc3)cnc2O[C@H]1CN(C)Cc1ccccc1	i
Cc1ccc(S(=O)(=O)N[C@@H]2CC[C@@H](CC(=O)N3CCC(Cc4ccccc4)CC3)O[C@@H]2CO)cc1	i
CC(=Nc1c2c(nc3ccccc13)N(C)CC2)N(C)C	i
CCC(=O)N(C)C[C@H]1Oc2ncc(-c3ccc(F)cc3)cc2C(=O)N([C@@H](C)CO)C[C@H]1C	i
Cc1ccc(Cl)c(OCC(=O)NCc2ccco2)c1	i
CC1(C)Cc2c(sc3c2c(=O)n(Cc2ccccc2)c2nnc(SCC(=O)c4ccc(Cl)cc4)n32)CO1	i
C[C@H]1CN([C@@H](C)CO)C(=O)CCCn2cc(nn2)CO[C@H]1CN(C)Cc1cccc(C(F)(F)F)c1	i
O=C(C[C@@H]1C=C[C@H](NC(=O)Nc2cc(F)ccc2F)[C@H](CO)O1)Nc1ccc(-c2ccccc2)cc1	i
C=C(C)Cn1c(SCc2nc3ccccc3[nH]2)nc2sc3c(c2c1=O)CCC3	i
O=C(NCCOc1nc(N2CCCCC2)nc(N2CCOCC2)n1)Nc1ccccc1	i
CCn1c(SCC(=O)Nc2ccc(Cl)cc2Cl)nnc1-c1ccccc1F	i
C[C@H]1CN([C@@H](C)CO)C(=O)c2cc(-c3ccccc3F)cnc2O[C@H]1CN(C)Cc1ccccc1	i
NC(=O)c1ccc(-n2c(CCC(=O)O)ccc2-c2cccs2)cc1	i
C/C=C/c1ccc2c(c1)O[C@H](CN(C)Cc1ccc(C(=O)O)cc1)[C@@H](C)CN([C@H](C)CO)S2(=O)=O	i
Cc1ccc(S(=O)(=O)N(C)CC(=O)Nc2ccc(F)cc2)cc1	i
COc1cccc(-c2cnc3c(c2)C(=O)N([C@H](C)CO)C[C@H](C)[C@H](CN(C)CC2CCCC2)O3)c1	i
CC(=O)Nc1ccc(NC(=O)COc2ccccc2C(=O)Nc2cccc(C)c2C)cc1	+
O=C(COc1ccccc1[N+](=O)[O-])Nc1cccc(-c2nc3cc(Cl)cc(Cl)c3o2)c1	i
C[C@H]1CN([C@@H](C)CO)C(=O)c2cc(C3=CCCCC3)cnc2O[C@H]1CN(C)Cc1ccncc1	i
C[C@H]1CN([C@@H](C)CO)C(=O)c2cc(Br)cnc2O[C@@H]1CN(C)C(=O)c1ccccc1F	i
O=C(Cn1ccc([N+](=O)[O-])n1)NCc1cccs1	i
CCC(=O)N(C)C[C@H]1Oc2cc(-c3ccc(F)cc3)ccc2S(=O)(=O)N([C@@H](C)CO)C[C@@H]1C	i
Cc1ccc(-n2c(SCC(=O)Nc3cccc(C)c3C)nnc2-c2ccncc2)cc1C	i
COc1ccc(CCNS(=O)(=O)c2ccc(OC)c(Cl)c2Cl)cc1OC	i

Some of the entries so far, in markdown:
| canonical_smiles | ID4 binder |
| --- | --- |
| Cc1ccccc1-c1cnc2c(c1)C(=O)N([C@@H](C)CO)C[C@@H](C)[C@@H](CN(C)C(=O)CN(C)C)O2 | i |
| C[C@@H](NC(=O)C[C@@H]1C[C@@H]2c3cc(NS(C)(=O)=O)ccc3O[C@@H]2[C@@H](CO)O1)c1ccccc1 | i |

Quoted at random: 7 entries already listed.
SMILES	ID4 binder
O=C(Cn1ccc([N+](=O)[O-])n1)NCc1cccs1	i
CCC(=O)N(C)C[C@H]1Oc2cc(-c3ccc(F)cc3)ccc2S(=O)(=O)N([C@@H](C)CO)C[C@@H]1C	i
COc1ccc(CCNS(=O)(=O)c2ccc(OC)c(Cl)c2Cl)cc1OC	i
COc1cccc(-c2cnc3c(c2)C(=O)N([C@H](C)CO)C[C@H](C)[C@H](CN(C)CC2CCCC2)O3)c1	i
C[C@H]1CN([C@@H](C)CO)C(=O)c2cc(C3=CCCCC3)cnc2O[C@H]1CN(C)Cc1ccncc1	i
CC(=O)Nc1ccc(NC(=O)COc2ccccc2C(=O)Nc2cccc(C)c2C)cc1	+
Cc1ccc(-n2c(SCC(=O)Nc3cccc(C)c3C)nnc2-c2ccncc2)cc1C	i

More records follow.
SMILES	ID4 binder
CC1CCc2c(sc3ncnc(NCCCOC(C)C)c23)C1 (stereo not drawn)	i
C[C@@H](NC(=O)C[C@@H]1C=C[C@H](NC(=O)Cc2ccccn2)[C@@H](CO)O1)c1ccccc1	i
CC(=O)Nc1ccc(Nc2ncnc3c2cnn3Cc2ccc(Cl)cc2)cc1	i
CN(C)C(=O)C[C@H]1C[C@H]2c3cc(NC(=O)C4CCC4)ccc3O[C@H]2[C@@H](CO)O1	i
C[C@H]1CN([C@@H](C)CO)C(=O)c2ccccc2-c2ccccc2CO[C@H]1CN(C)Cc1cccnc1	i
CCOC(=O)c1cnc2c(C(F)(F)F)cccc2c1NCCO	i
CSc1ccccc1NC(=O)CN(C)S(=O)(=O)c1ccc(Cl)cc1	i
CC(=O)N(C)C[C@H]1Oc2ncc(-c3cccc(F)c3)cc2C(=O)N([C@@H](C)CO)C[C@@H]1C	i
C[C@@H]1CN([C@@H](C)CO)C(=O)c2cc(C#CC3CCCC3)cnc2O[C@H]1CN(C)C(=O)C1CCCCC1	i
Cc1ccc(NC(=O)C2CC(=O)n3cnnc3N2)cc1 (stereo not drawn)	i
NS(=O)(=O)c1ccc(NC(=O)CN2CCN(C(=O)c3ccccc3)CC2)cc1	i
COC(=O)c1ccccc1NC(=O)c1ccc(NC(=O)C(C)Oc2ccc(Cl)cc2C)cc1 (stereo not drawn)	i
CN(Cc1nc(-c2cccc([N+](=O)[O-])c2)no1)S(=O)(=O)c1ccc(Br)cc1	i
O=C(C[C@@H]1CC[C@@H](NC(=O)C2CCC2)[C@H](CO)O1)NC1CCCCC1	i
C[C@@H]1CN([C@H](C)CO)C(=O)c2cc(Br)cnc2O[C@@H]1CN(C)Cc1ccccc1	i
O=C(C[C@H]1C=C[C@H](NC(=O)Cc2ccccn2)[C@H](CO)O1)NCCCN1CCOCC1	i
O=C(Oc1ccc(-c2ccccc2)cc1)C(Cc1ccccc1)N1C(=O)C2C3CCC(C3)C2C1=O (stereo not drawn)	i
CC(=O)/C(=C\c1ccccc1)CC(=O)O	i
C[C@H](CO)N1C[C@H](C)[C@H](CN(C)C(=O)CN2CCOCC2)Oc2ncc(-c3cncnc3)cc2C1=O	i
CNC[C@H]1Oc2cc(C#Cc3ccc(F)cc3)ccc2S(=O)(=O)N([C@H](C)CO)C[C@@H]1C	i
Cc1ccc(C(C)C)c(OCC(=O)Nc2ccc(C)cc2[N+](=O)[O-])c1	i
Cc1onc(-c2c(F)cccc2Cl)c1C(=O)NCCc1ccc(S(N)(=O)=O)cc1	i
Cc1cc(Cl)c(S(N)(=O)=O)cc1OCC(N)=O	i
CCn1c(SCC(=O)Nc2cccc(C)c2C)nnc1-c1ccc(Cl)c(Cl)c1	i
O=C1c2cccc3cccc(c23)C(=O)N1CCCSc1nnnn1-c1ccccc1	i
Cc1c(Cl)cccc1NC(=O)CN(c1ccccc1Br)S(C)(=O)=O	i
CC(=O)c1ccc(NC(=O)CN(C)S(=O)(=O)c2ccc(Br)cc2)cc1	i
CS(=O)(=O)N(CC(=O)O)c1ccc(Cl)cc1	i
CCN(CC)CC(O)Cn1c2c(c3ccccc31)CCCC2=O (stereo not drawn)	i
CS(=O)(=O)N1[C@H](C#N)[C@@H](c2ccc(-c3ccccc3F)cc2)[C@H]1CO	i
COc1ccc(-c2ccc3c(c2)O[C@H](CN(C)CC2CC2)[C@H](C)CN([C@@H](C)CO)S3(=O)=O)cc1	i
C[C@H]1CN([C@@H](C)CO)C(=O)c2ccccc2-c2ccccc2CO[C@H]1CN(C)Cc1ccncc1	i
CC(C)C#Cc1cnc2c(c1)C(=O)N([C@H](C)CO)C[C@@H](C)[C@H](CN(C)Cc1ccccn1)O2	i
CO[C@@H]1CN(C)C(=O)c2ccc(NC(C)=O)cc2OC[C@@H](C)N(Cc2ccccn2)C[C@H]1C	i
CCOc1cc(C)c(S(=O)(=O)NCCN2CCOCC2)cc1C	i
O=C(CSc1n[nH]c(-c2ccco2)n1)Nc1sc2c(c1C(=O)Nc1ccccc1)CCCC2	i
CN(CC(=O)Nc1ncn[nH]1)S(=O)(=O)c1cc(Cl)ccc1Cl	i
COC(=O)c1ccc(NC(=O)CSc2nc(-c3ccccc3)c(-c3ccccc3)[nH]2)cc1	i
COc1ccc(S(=O)(=O)N(C)CC(=O)Nc2ccccc2F)cc1Cl	i

This is a subset; rates above refer to the full screens.
